Assay outcomes (PubChem BioAssay)
KCNQ2 inh = KCNQ2 potassium channel inhibitors, primary screen, cell-based, CHO-K1, FluxOR thallium flux, B-score (AID 2156); O88943; 20 min; stronger effect = lower value; only compounds with negative scores are shown here; some inactives read as strong as hits; B-score at 10 µM; hit rate 1.1% among 310,000;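 active means fluorescence ratio B-score at most minus 3 library SDs, with starting brightness B-score within 2 library SDs, cut at about -5.5 in these data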
Target sequence (O88943 whole entry, looked up): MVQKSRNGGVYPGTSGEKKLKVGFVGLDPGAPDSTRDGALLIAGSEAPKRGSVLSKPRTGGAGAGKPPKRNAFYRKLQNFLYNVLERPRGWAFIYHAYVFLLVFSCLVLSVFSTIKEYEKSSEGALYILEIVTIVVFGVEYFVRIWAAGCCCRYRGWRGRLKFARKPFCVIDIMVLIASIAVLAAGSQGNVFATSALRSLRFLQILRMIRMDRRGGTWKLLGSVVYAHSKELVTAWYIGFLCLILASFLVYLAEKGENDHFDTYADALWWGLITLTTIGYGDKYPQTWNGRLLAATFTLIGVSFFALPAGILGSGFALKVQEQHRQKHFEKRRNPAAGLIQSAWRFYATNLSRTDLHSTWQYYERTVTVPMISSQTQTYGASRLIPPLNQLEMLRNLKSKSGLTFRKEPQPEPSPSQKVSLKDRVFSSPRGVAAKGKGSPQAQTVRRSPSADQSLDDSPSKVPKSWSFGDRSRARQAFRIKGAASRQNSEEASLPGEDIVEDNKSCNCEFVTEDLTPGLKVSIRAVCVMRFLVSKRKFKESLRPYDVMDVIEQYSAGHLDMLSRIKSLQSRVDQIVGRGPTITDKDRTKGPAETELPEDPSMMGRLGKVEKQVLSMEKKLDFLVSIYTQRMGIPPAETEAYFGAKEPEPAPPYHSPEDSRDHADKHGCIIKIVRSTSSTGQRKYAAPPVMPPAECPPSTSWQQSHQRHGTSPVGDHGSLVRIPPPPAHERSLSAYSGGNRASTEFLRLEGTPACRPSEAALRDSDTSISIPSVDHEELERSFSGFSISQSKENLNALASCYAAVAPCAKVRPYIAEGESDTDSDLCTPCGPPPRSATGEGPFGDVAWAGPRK
KCNQ2 inh baseline = recorded beside KCNQ2 inh, whose call it bears; B-score; measured here: initial fluorescence intensity artifact check;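 brightness before thallium and not channel activity; 0 = typical well and far values either way flag optical interference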
Starred values were filed as active, the others as inactive; i = inactive.

SMILES	KCNQ2 inh	KCNQ2 inh baseline
CN(C(=O)c1cnc2n(c1=O)CCS2)C1CCCCC1	i	0.58
CCC(C(=O)NCCCN1CCN(CC)CC1)n1nc(C)n2c(cc3occc32)c1=O (stereo unspecified)	i	0.45
O=C(CCS(=O)(=O)c1ccc(Cl)cc1)N1CCN(c2ccccc2F)CC1	i	-0.14
CCN(Cc1ccccc1)S(=O)(=O)c1ccc(S(=O)(=O)N2CCN(C)CC2)cc1	i	-0.08
COCc1nnc(NS(=O)(=O)c2c(C)cc(C)cc2C)s1	i	-0.04
Cc1cccc(N2CCN(C(=S)Nc3ccc4nc(N5CCN(C)CC5)cc(C)c4c3)CC2)c1C	i	2.03
COc1ccccc1C(=O)Nc1ccccc1SC(=O)c1ccccc1OC	i	1.01
COc1ccc(NC(C)=O)cc1NC(=O)c1ccc2ccccc2c1	i	0.64
C=CC(=O)NC(C)(C)CCN1CCOCC1	i	1.62
Cc1ccc(Cl)cc1N1CCN(CC(=O)Nc2ccc(CN3CCCCC3)cc2)CC1	i	-0.79
COc1ccccc1CC1(C)NC(=O)N(CC(=O)N2CCc3ccccc3C2)C1=O (stereo unspecified)	i	-0.51
O=c1c(Cl)c2oc3ccccc3nc-2c2ccccc12	i	-1.29
C/C(=N/NS(=O)(=O)c1ccc(C)c(C)c1)c1ccncc1	i	1.02
COC(=O)c1ccccc1NC(=S)NC(=O)c1ccccc1	i	1.06
CCOC(=O)c1cc(CC)sc1NC(=O)COC(=O)c1cc[n+]([O-])cc1	i	-0.97
O=c1c2ccccc2nc2n1-c1ccccc1CCC2	i	-0.45
O=C(NC1CCCC1)C(c1cccnc1)N(Cc1ccccc1)C(=O)c1csnn1 (stereo unspecified)	i	-2.73
Cc1c(NC(=O)COC(=O)c2ncc(Cl)c(Cl)c2Cl)c(=O)n(-c2ccccc2)n1C	i	-0.17
C=CCNC(=O)c1ccc(CN(c2ccc(OCC)cc2)S(=O)(=O)c2ccc(C)cc2)cc1	i	-1.06
Cc1nn(Cc2cccc(C(=O)Nc3ccn(Cc4ccccc4F)n3)c2)c(C)c1[N+](=O)[O-]	i	0.1
C[C@]12CC[C@@H]3c4ccc(O[C@@H]5O[C@H](C(=O)O)[C@@H](O)[C@H](O)[C@H]5O)cc4CC[C@H]3[C@@H]1C[C@@H](O)[C@@H]2O	i	-0.99
O=C(CCN1C(=O)C2CCCCC2C1=O)Nc1ccc(Br)cc1F (stereo unspecified)	i	0.52
O=C(Oc1cccc([N+](=O)[O-])c1)c1cc(-c2ccccc2)nc2ccccc12	i	3.47
CSc1nc(N(C)C)nc(N2CC(=O)N(CCNS(=O)(=O)c3ccc(C)cc3)C2=N)n1	i	-0.21
Cc1noc(C)c1COc1ccc(C(=O)N2CCN(c3ccccc3F)CC2)cc1	i	-0.11
COc1ccc(CC(=O)NCc2cn3ccsc3n2)cc1	i	-0.54
O=C(N/N=C/c1ccco1)c1cc(C2CC2)nc2ccccc12	i	2.29
Cc1cc(-c2onc(C)c2C(=O)Oc2ccc(Cl)cc2)no1	i	-0.16
Cc1cccc(N2C(=O)CC(N3CCC(c4nc5ccccc5[nH]4)CC3)C2=O)c1 (stereo unspecified)	i	1.3
COc1ccccc1NC(=O)C(C/C=C(/C)Cl)C(C)=O (stereo unspecified)	i	-0.37
Cc1sc2ncnc(N3CCC(C(=O)N(C)CC(=O)Nc4ccccc4Br)CC3)c2c1C	i	0.17
O=C(COC(=O)Cn1cnc2ccccc2c1=O)NCCC1=CCCCC1	i	-1.13
O=C(NCc1ccccn1)C1C2C=CC(C2)C1C(=O)Nc1ccc(F)cc1 (stereo unspecified)	i	2.84
Cc1cccc(NC(=O)CN(CCc2ccccc2)S(C)(=O)=O)c1	i	0.57
CCOC(=O)COc1ccc(/C=C/[N+](=O)[O-])c(OCC(=O)OCC)c1	i	-0.39
O=C(N1CCN(Cc2ccccc2)CC1)C12CC3CC(CC(C3)C1)C2	-5.61*	-0.09*
C=CCn1c(/N=C/c2ccc(N(C)C)cc2)nc2ccccc21	-7.27*	2.67*
Cc1nc(CS(=O)(=O)c2ccccc2)cc(Sc2ccc(Cl)cc2)n1	i	-0.99
Cc1cccc(NC(=O)c2ccccc2NC(=O)CCC(=O)O)c1	i	-0.01
O=C(NCc1ccc(Cl)cc1)c1cc(-c2ccco2)on1	i	-0.33
O=[N+]([O-])c1ccc2nc(NS(=O)(=O)c3ccc(Cl)cc3)sc2c1	i	0.45
CCOC(=O)c1c(NC(=O)/C=C/c2ccc(C)o2)sc(C)c1C	i	0.66
CC1(C)CC(C(CC(=O)Nc2nccs2)c2ccccc2)CCO1 (stereo unspecified)	i	-1.16
Cc1ccccc1OCc1nc2ccccc2[nH]1	-6.58*	-0.02*
Cc1ccccc1OCC(O)CN(Cc1ccccc1O)C1CCCCC1 (stereo unspecified)	-7.41*	-0.02*
Cc1cc2ccccc2c(=O)n1CC(=O)NC1CCCCCC1	i	1.71
CC1=CC(C)(C)N(S(=O)(=O)c2ccc(C)cc2)c2ccc(C)cc21	i	0.63
Cc1ccc(S(=O)(=O)Nc2cccc(NC(=O)CN3CCCCC3)c2)cc1	i	-0.08
COc1cc(C(=O)NCCOc2ccc(F)cc2)c(Br)c(OC)c1OC	i	-0.03
Cc1cc2c(cc1S(=O)(=O)N1CCN(c3ccccc3F)CC1)OCC(=O)N2	i	1.14

The list continues.
SMILES	KCNQ2 inh	KCNQ2 inh baseline
CC1CCN(CC(=O)n2c3c(c4ccccc42)CCCC3)CC1	i	0.05
COC(=O)c1sc2ccccc2c1NC(=O)c1cccs1	i	0.58
COc1ccc(S(=O)(=O)NCC(c2ccc3c(c2)OCO3)N2CCN(c3ccccc3)CC2)cc1 (stereo unspecified)	i	2.94
CCN(CC(=O)NC1CCS(=O)(=O)C1)S(=O)(=O)c1cccc(C(C)=O)c1 (stereo unspecified)	i	0.41
CC(C)Cc1ccc(CN2CCCC(NC(=O)CCN3CCCCC3=O)C2)cc1 (stereo unspecified)	i	-0.22
O=C1CC(NCC2CCCO2)C(=O)N1c1ccc(Cl)cc1 (stereo unspecified)	i	0.39
Cc1cc(N2CCN(C)CC2)nc2ccc(NC(=S)N3CCN(c4ccc(F)cc4)CC3)cc12	i	0.44
O=C(NC1CCSc2ccccc21)c1cc([N+](=O)[O-])ccc1N1CCOCC1 (stereo unspecified)	i	-0.04
Cc1ccnc(NS(=O)(=O)c2ccc(NC(=O)C3CCCNC3=O)cc2)n1 (stereo unspecified)	i	0.74
Cc1ccc(NC(=O)CSc2nc(NS(=O)(=O)c3ccc(C)cc3)cc(=O)[nH]2)cc1	i	0.7
COc1c(C)cc(C(=O)C2CCCN(C(=O)c3cccc(-n4cccn4)c3)C2)cc1C (stereo unspecified)	i	1.19
CSc1ccc(-c2nnn(CC(=O)NCc3ccccc3)n2)cc1	i	0.49
Cc1cc(C)n(Cc2nc3ccccc3n2C)n1	i	1.56
CCCCN1C(=S)NC[C@@H]1c1ccccc1	i	0.9
CCCCN(C/C=C/c1ccccc1OC)Cc1ccccc1	i	-0.68
CCN(CC(=O)Nc1c(F)cccc1F)C(=O)CCN1C(=O)c2cccc([N+](=O)[O-])c2C1=O	i	-1.92
CCOC(=O)CN(C(=O)CSc1nnc(-c2cccc(OC)c2)o1)c1ccc(F)cc1	i	-0.71
Cc1ccc(-n2c(C)c(C)c3c(N)ncnc32)cc1	i	0.93
O=C(C1CCCO1)N(Cc1ccccc1)c1ccccc1 (stereo unspecified)	i	1.01
Cc1cc(C)n(-c2ccc(Cl)c(C(=O)Nc3ccc(OC(F)(F)F)cc3)n2)n1	i	-0.13
Cc1ccc(C)c(N(Cc2ccccc2F)S(C)(=O)=O)c1	i	-0.89
O=C(NCCc1nc2ccccc2[nH]1)/C(=C/c1ccco1)NC(=O)c1ccc(Br)cc1	i	0.94
CCOc1cccc(CNCCNC(=O)c2nonc2N)c1	i	2.83
O=C(COC(=O)c1ccc2c(c1)C(=O)N(CCc1ccccc1)C2=O)Nc1ccc(OC(F)F)cc1	i	-0.74
CC(C)(C)c1ccc(-c2nc(C#N)c(NCc3cccnc3)o2)cc1	i	-0.14
COc1ccc(Cl)cc1C(=O)CSc1nc(N)cc(N)n1	i	-0.53
O=C(c1ccc(N2CCOCC2)c([N+](=O)[O-])c1)N1CCN(S(=O)(=O)c2cccs2)CC1	i	-0.12
CSc1ccccc1C(=O)N1CCC(CCC(=O)NCc2ccc(F)cc2)CC1	i	1.08
O=C(O)CSCC(=O)NCc1ccccc1	i	1.54
Nc1ccccc1SCc1ccccc1	i	-0.49
CCOc1ccc(-n2cnnn2)cc1S(=O)(=O)N1CCCCC1	i	-0.21
Cc1cc(C)cc(NC(=O)CSc2nnc(Cc3cccn3C)n2-c2ccc(F)cc2)c1	i	2.48
Cc1c(N(C)S(=O)(=O)c2cccc(C(=O)NCC3CCCO3)c2)c(=O)n(-c2ccccc2)n1C (stereo unspecified)	i	-0.27
S=C1NCN(Cc2ccccc2)CN1	i	0.53
CC1=CC(C)(C)N(C(=O)Nc2ccccc2)c2ccccc21	i	-1.11
CCc1ccc(-n2cc(-c3ccc(F)cc3)[n+]3c2SCCC3)cc1	i	0.6
Cc1nc(N2CCN(C(=O)c3ccco3)CC2)c2oc3ccccc3c2n1	i	0.68
CCOc1ccc(N(CC(=O)Nc2ccc(C)cc2)S(=O)(=O)c2c(C)noc2C)cc1	i	-0.18
O=C(NCCCN1CCOCC1)c1cc(C(=O)C2CCCCC2)c[nH]1	i	1.96
COC(=O)c1ccc(C(=O)OC)c(NC(=O)Nc2ccc3c(c2)OCO3)c1	i	1.73
CN1CCN(C(=O)C2CC(c3c(F)cccc3Cl)=NO2)CC1 (stereo unspecified)	i	1.66
COc1ccc(/C=N/NC(=O)c2ccccc2OC)cc1COc1ccc(C)cc1	i	-0.55
NSc1nc(N)c2nc(-c3ccccc3)c(-c3ccccc3)nc2n1	i	0.45
CCOC(=O)Cn1c(=NC(=O)C(C)C)sc2c(C)cc(C)cc21	i	0.53
Nc1c(Br)c(=O)[nH]c(=O)n1-c1ccc(F)cc1	i	0.6
CC(C)Cn1nc(NS(=O)(=O)c2cccc3nonc23)c2cc3ccccc3nc21	i	-0.83
COc1ccc(C(=O)N2CCN(Cc3nc(CC4CC4)no3)CC2)cc1	i	0.77
CCOC(=O)N1C2=NC(C(=O)OC)=C(C(=O)OC)[C@@H]3N(Cc4ccccc4)c4ccccc4[C@]23C[C@H]1C(=O)OC	i	1.35
COc1ccc(C)cc1S(=O)(=O)N(CC(=O)Nc1ccc2c(c1)OCCO2)Cc1ccccc1	i	1.32
CCCN1CCN(CCCNC(=O)CCn2nc(-c3ccccc3)ccc2=O)CC1	i	1.06

(continued)
SMILES	KCNQ2 inh	KCNQ2 inh baseline
O=C1CN(C(=O)COC(=O)c2cnc(Cl)c(Cl)c2)c2ccccc2N1	i	-1.12
CCOc1ccc(-c2noc(-c3cccnc3)n2)cc1OCC	i	-0.57
O=C1NC(=S)S/C1=C/c1ccc(N2CCOCC2)o1	i	4.76
O=C(CSc1nnc2ccc(-c3cccnc3)nn12)Nc1ccccc1	i	2.67
CC1CCC(NS(=O)(=O)c2ccc(Cl)nc2)CC1 (stereo unspecified)	i	-0.7
CCC1=C(OC(=O)N(CC)CC)N2C(=O)OC(=NCC3CC3)[C@]2(Cc2ccccc2)[C@H]2C1=CC[C@H]1C(=O)NC(=O)[C@H]12	i	-0.2
CN1C2CCC1/C(=C\c1ccccc1F)C(=O)/C2=C/c1ccccc1F	i	0.34
CCOC(=O)Cc1c(C)[nH]c(=S)[nH]c1=O	i	1.52
Cc1ccc(-c2nc3cccnc3o2)cc1NC(=O)COc1ccc(C(C)(C)C)cc1	i	0.37
CCOC(=O)C1=C(C)N=c2s/c(=C3\C(=O)Nc4ccccc43)c(=O)n2C1c1ccc2c(c1)OCO2 (stereo unspecified)	i	1.34
CCOc1ccc2nc(-c3cc(NC(C)=O)ccc3O)sc2c1	i	1.7
COC(=O)C1=C(C)N(C2CCCCC2)C(=O)C1	i	-0.12
COc1ccc(Cl)cc1NC(=O)C1CCCN(S(C)(=O)=O)C1 (stereo unspecified)	i	-0.62
CCN(CC)C(=O)c1ccc(CS(=O)(=O)Cc2ccccc2)cc1	i	1.13
CNC(=O)NC(=O)COC(=O)c1ccc(-n2c(C)ccc2C)cc1	i	-2.17
NC(=O)C[n+]1ccc(/C=N/O)cc1	i	1.89
COc1cc2c(cc1OC)C1=C(C#N)CN(C3CCCCC3)CN1CC2	i	-0.86
Cc1cccc(NC(=O)CSc2cccc3cccnc23)c1	i	-0.42

Only part of the results is shown; count on the stated rates, not on these rows.
